CtBP-E1A inh: blocks the CtBP interaction with E1A. activity change, % (no concentration beside the values). 340,000 tested, 0.49% active. AlphaScreen GST-E1A/His-CtBP binding, 1536-well; active compounds read low; control for the full effect not named in the record; in the data active means activity change below about -65%; inconclusive means about -30% to -65%; inactive means above about -30%; note: % is set by controls: 0 for no effect and ±100 for the full control effect
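Protein mix (5X: 125 nM each GST-E1A, His-CtBP) was incubated with pinned compound 2 h at 37 deg C in dark, in 50 mM Tris pH 8.0 buffer with 300 mM NaCl. Glutathione donor and nickel acceptor beads followed; AlphaScreen signal read after 1 h.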
D2 PAM: human D2 receptor positive allosteric modulation | DiscoveRx D2 beta-arrestin cells, luminescence, 90 min; 100% = 57 uM dopamine signal | 360,000 tested, 0.23% active | AID 624464 | potentiation, % (no concentration beside the values) | P14416; active = potentiation of 50% or more; inconclusive = 30% to 50%; inactive = 30% or less;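 note: compound concentration not given in the record; tested on top of an EC20 dose of dopamine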
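PathHunter beta-arrestin assay in DiscoveRx D2 cells. Compounds were added with an EC20 of dopamine (50 nM final) for 90 min at 37 deg C. Luminescence was read 1 h after detection reagent, with 57 uM dopamine as the EC100 control.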
TRPV1 PAM: potentiators of human vanilloid receptor 1 (TRPV1). Q8NER1. TRPV1-expressing cells, Fluo-8 calcium influx, capsaicin EC20 potentiation; host cell line not named in the record; control for the full effect not named in the record. potentiation, % at 8.33 µM. 320,000 tested, 0.02% active; active means potentiation above 80%; inconclusive means 30% to 80%; inactive means below 30%; note: 0% is about no effect
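TRPV1-expressing cells were cultured overnight at 35.5C and loaded with Fluo-8 calcium dye for 40 to 90 min at room temperature. After a 10 s baseline, compound was added and calcium influx was read kinetically for 3 min (ex 480/em 520 nm).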
D2 ag: human D2 receptor agonism in beta-arrestin assay. activation, % (no concentration beside the values). DiscoveRx PathHunter D2 beta-arrestin, luminescence, 90 min; 100% = 57 uM dopamine signal. 360,000 tested, 0.084% active; in the data active = activation above about 40%; inconclusive = about 15% to 40%; inactive = below about 15%; note: compound concentration not given in the record; the text of the record calls up to 30% inactive
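Agonist mode: compounds alone added to overnight-plated D2 PathHunter cells for 90 min at 37 C, with 57 uM final dopamine (EC100) defining full response. Beta-arrestin recruitment detected by chemiluminescent reagent, read after 1 h at ambient temperature.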
Six1-Eya2 inh: inhibitors of human Six1/Eya2 interaction; AlphaScreen GST-Six1/His-Eya2 binding, biochemical; active compounds read low; control for the full effect not named in the record; 360,000 tested, 0.56% active; AID 651725; activity change, % (no concentration beside the values); Q15475+O00167; in the data active = activity change below about -65%; inconclusive = about -30% to -65%; inactive = above about -30%; note: % is set by controls: 0 for no effect and ±100 for the full control effect
Target sequence (O00167 whole entry, looked up): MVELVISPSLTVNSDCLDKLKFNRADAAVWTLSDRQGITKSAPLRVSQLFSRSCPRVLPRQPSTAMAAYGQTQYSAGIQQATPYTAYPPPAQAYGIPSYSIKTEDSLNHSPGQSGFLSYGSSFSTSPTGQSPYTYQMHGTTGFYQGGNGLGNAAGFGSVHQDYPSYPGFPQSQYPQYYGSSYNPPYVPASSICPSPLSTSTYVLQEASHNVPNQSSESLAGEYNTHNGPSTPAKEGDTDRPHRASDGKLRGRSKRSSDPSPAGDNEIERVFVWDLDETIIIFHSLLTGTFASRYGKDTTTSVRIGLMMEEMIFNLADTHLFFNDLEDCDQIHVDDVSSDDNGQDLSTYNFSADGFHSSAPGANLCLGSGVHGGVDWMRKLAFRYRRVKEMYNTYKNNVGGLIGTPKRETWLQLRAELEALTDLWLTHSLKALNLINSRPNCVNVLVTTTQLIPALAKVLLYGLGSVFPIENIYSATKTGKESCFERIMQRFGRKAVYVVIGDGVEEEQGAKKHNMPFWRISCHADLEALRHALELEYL
Target sequence (Q15475 whole entry, looked up): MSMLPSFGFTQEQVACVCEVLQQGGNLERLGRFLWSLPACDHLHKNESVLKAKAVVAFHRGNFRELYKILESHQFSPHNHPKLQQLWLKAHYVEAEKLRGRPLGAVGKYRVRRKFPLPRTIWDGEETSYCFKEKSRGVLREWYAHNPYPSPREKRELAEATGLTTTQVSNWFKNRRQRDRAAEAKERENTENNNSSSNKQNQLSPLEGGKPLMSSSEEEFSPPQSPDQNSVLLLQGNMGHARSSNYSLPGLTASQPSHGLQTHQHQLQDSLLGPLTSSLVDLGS
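Six1/Eya2 binding was read as AlphaScreen signal after compounds were pinned into GST-Six1 plus His-tagged Eya2 (5X stock 250/500 nM) in pH 8.0 Tris/NaCl/TCEP buffer, beads added, then incubated 1 h, 37 C, dark.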
PINK1 expr mod: changes PINK1 expression | Potency, µM (highest dose often 76.6 µM), for the others: top-dose activation (PINK1 increase), most hits filed as activators | 410,000 tested, 0.2% active | PINK1 immunofluorescence, high-content cytometry, 24 h; active = well fitted activation curve with a large enough effect; inconclusive = small, poorly fitted or top-dose-only effect; inactive = flat fitted curve, though single readings scatter; cell line not stated here;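 note: potency is the fitted concentration of half-maximal effect; % of control where 0% means no effect; nearly all actives have a fitted effect of over 65% in size; a mitochondrial uncoupler was the plate control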
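Decision-based qHTS: stable cells, 24 h exposure to five compound concentrations, CCCP as control. Fixed cells stained for PINK1 plus nuclear, mitochondrial and cell markers, cytometer read.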
Sfp PPTase inh: blocks B. subtilis Sfp PPTase activity; Q9F4F7; Biochemical Sfp PPTase activity, qHTS; Potency, µM, inactives show max response, negative = inhibition, usual class: inhibitors; 310,000 tested, 3.5% active; AID 1490; active = well fitted inhibition curve with a large enough effect; inconclusive = small, poorly fitted or top-dose-only effect, or another doubt; inactive = no such curve, though single readings can be large or run the other way;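 note: the enzyme is Sfp with the accession as filed and its product quenches rhodamine fluorescence; potency is the fitted concentration of half-maximal effect; 0% = enzyme reaction without inhibitor and -100% = no enzyme wells; top concentration of the series not given in the record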
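Reaction rates are the 30-min fluorescence difference (ex 525, em 598 nm) in wells containing 15 nM Sfp, 5 uM rhodamine-CoA and 12.5 uM BHQ-2-YbbR at pH 7.6 with 10 mM MgCl2.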
Numbers without * were called inactive; ? = inconclusive; nt = no result given; & = joins results of further samples; [ ] = another dose, or the depositor's remark.

SMILES | CtBP-E1A inh | D2 PAM | TRPV1 PAM | D2 ag | Six1-Eya2 inh | PINK1 expr mod | Sfp PPTase inh
CSc1ccc(CN(C)C(C)C(=O)Nc2ccc(F)c(F)c2F)cc1 (stereo not given) | 10 | -4 | -10 | -7.4 | 11 | 4.0% | 3%
COc1cccc(-c2nn(C)c3sc(C(=O)N4CCN(c5ccccn5)CC4)cc23)c1 | -20 | 22 | -2 | 0.5 | -19 | -0.8% | -9%
CC(C)(C)C1=C(C#N)C(c2ccncc2)C(C#N)=C(N)O1 (stereo not given) | -19 | 18 | 8 | 2.7 | -15 | -2.3% | 6%
CCOCCc1nnc(NC(=O)CCC2CCCCC2)s1 | 4 | -1 | 1 | 1.1 | 3 | 0.2% | 17%
O=C(NNc1nc2c(F)cccc2s1)c1ccc(F)cc1 | -6 | -14 | -4 | 4.0 | 0 | 16% | 17%
CCC(=O)NC(c1ccc(C)cc1)c1cc([N+](=O)[O-])c2cccnc2c1O (stereo not given) | -87* | -8 | 7 | -0.4 | -85* | 27% | ?
NS(=O)(=O)c1ccc(CNC(=O)c2cc(-c3cccnc3)nc3ccccc23)cc1 | -1 | -33 | -3 | -5.5 | -11 | 0.7% | 2%
CCOC(=O)c1nn(-c2ccc(C)c(C)c2)cc1O | 6 | -22 | 17 | -4.0 | -7 | 6.4% | 4%
COC(=O)[C@]1(Cc2ccccc2)N[C@H](CN(C)C(=O)COc2ccccc2)[C@@H]2C(=O)N(Cc3ccccc3)C(=O)[C@@H]21 | 0 | -6 | nt | -1.2 | -2 | 2.9% | nt
CCN(Cc1ccccc1)c1ccc(/C=C(\C#N)c2ccccn2)cc1 | 0 | -14 | -1 | -2.1 | 38 | 6.8% | ?
C(=N\N(Cc1ccccc1)c1ccccc1)/c1ccco1 | -13 | 1 | -5 | -1.5 | -22 | 7.8% | -29%
CC(C)=C1C2CCC1C(C(=O)NCc1ccccc1)C2C(=O)O (stereo not given) | 2 | -6 | -7 | -0.5 | 1 | -0.8% | 3%
COCCCNC(=O)Cn1c(=O)n(CC(=O)NCCc2ccc(OC)c(OC)c2)c(=O)c2sccc21 | nt | 4 | 6 | -3.4 | -5 | 0.4% | 11%
COc1cc2oc(=O)cc(-c3ccc(-c4ccc(C(F)(F)F)cc4)cc3)c2c(OC)c1OC | 2 | nt | nt | 1.5 | -3 | -1.0% | -22%
Cc1cc(NC(=O)C(=O)NCCN2CCN(S(C)(=O)=O)CC2)ccc1Br | -7 | 13 | 13 | 12 | -2 | 13% | -9%
COc1ccc(-c2nc(C#N)c(NCCCN3CCOCC3)o2)cc1 | -3 | -9 | ? | 5.3 | 4 | -1.5% | 1%
O=C(NC1CCN(Cc2ccccc2)CC1)c1cccc(Br)c1 | 6 | -13 | -14 | -1.4 | -4 | 1.8% | 11%
COCCNC(=O)C(=O)Nc1cc2c3c(c1)C(C)C(=O)N3CCC2 (stereo not given) | nt | 3 | -2 | -2.0 | 2 | -1.2% | 6%
COCCn1c(-c2ccc(Cl)cc2)cnc1SCC(=O)NCc1cccs1 | -9 | -23 | 6 | -4.2 | -11 | -1.1% | 3%
COc1ccc(-c2csc(Nc3ccc(S(N)(=O)=O)cc3)n2)cc1OC | -12 | 6 | 6 | -6.3 | ? | 3.0% | -20%
COc1ccccc1N1CCN(S(=O)(=O)c2c(C)[nH]c(=O)[nH]c2=O)CC1 | 5 | 2 | 4 | 4.3 | 0 | 1.6% | 19%
CC1(C)CC(NCc2ccccc2)=CC(=S)N1 | 2 | -10 | nt | -7.8 | 3 | 0.9% | nt
Cc1cc(-c2nn3c(-c4ccccc4)nnc3s2)c2ccccc2n1 | ? | -7 | 2 | -2.0 | ? | 0.1%[38.3 µM] | ?
CN1CCN(C(=O)C2CC(c3ccc(F)cc3)=NO2)CC1 (stereo not given) | 0 | -6 | 4 | -4.7 | 6 | -3.2% | 8%
COc1ccc(-n2cc(-c3ccccc3)c3c(=S)nc[nH]c32)cc1 | nt | -11 | 3 | -7.8 | 1 | -0.5% | 8%
NC(N)=NC(=O)c1nc(Cl)c(N2CCCCCC2)nc1N | -8 | -4 | 2 | -5.4 | -1 | 0.5%&2.6% | 23%
CN(C)c1nnnn1-c1ccc(Oc2ccccc2)cc1 | 6 | -2 | -21 | -22 | 7 | -0.5% | 14%
Nc1c(C=C2C=CC(=O)C=C2)c(=O)nc2snc(SCc3ccccc3)n12 | nt | -12 | -19 | -5.6 | -1 | 1.5% | -18%
COC(=O)c1ccccc1NC(=S)N(Cc1ccc2c(c1)OCO2)Cc1cc2cc(C)ccc2[nH]c1=O | -3 | 2 | 2 | 0.0 | -5 | 1.7% | -5%
COc1ccc(CN2C(=O)[C@@H]3C(c4ccc(F)cc4)=NO[C@@H]3C2=O)cc1 | 9 | 26 | 4 | -1.2 | 4 | -1.3% | -1%
COC(=O)C(C)Oc1ccc2c(c1)O/C(=C\c1ccco1)C2=O (stereo not given) | 10 | 4 | -5 | 0.4 | -11 | 1.2% | ?
COc1ccccc1N1CCN(C(=O)c2cc3c(=O)n4ccccc4nc3s2)CC1 | 3 | -2 | 6 | -1.2 | -3 | 1.0% | nt
COc1cc(OC)c(-c2nc3cnccc3n2C)cc1OC | 1 | -4 | 4 | -0.2 | 1 | -1.3%[38.3 µM] | 14%
CCN(CC)S(=O)(=O)c1cc(NC(=O)COC(=O)CCC(=O)c2ccc(F)cc2)ccc1C | 2 | -6 | 2 | -0.1 | -1 | 6.7% | -12%
O=C(c1cccs1)N1CCn2c1nc1ccccc12 | -2 | -10 | 10 | 1.4 | 8 | -0.3% | -8%
Nc1c(Br)cc(Br)c2c1C(=O)c1c(cccc1S(=O)(=O)O)C2=O | -74* | -3 | nt | -3.6 | ? | -0.1% | nt
Cc1ccc(-n2c(C)nc3oc4ccccc4c(=O)c3c2=O)cc1 | -23 | -5 | 9 | -4.4 | -20 | 1.3% | 7%
O=C(COC(=O)c1ccc(S(=O)(=O)NCc2ccco2)cc1)Nc1ncc(Cl)cc1Cl | 4 | -5 | 4 | -3.0 | -1 | 5.8% | -10%
COc1ccc(N2CCN(C(=O)CCc3ccccc3)CC2)cc1 | 0 | -9 | 5 | -1.7 | 11 | 0.3% | 7%
CCOC(=O)N1CCN(C(=O)c2ccc3nc(C)sc3c2)CC1 | 5 | 10 | 1 | -0.6 | 7 | -2.0% | 14%
CC(C)CN(CC(C)C)S(=O)(=O)c1cc([N+](=O)[O-])ccc1N1CCCCCC1 | -12 | -3 | -2 | -3.9 | -8 | -0.8% | 12%
CC1CCCCC1NS(=O)(=O)CCNC(=O)c1ccc2c(c1)OCO2 (stereo not given) | 7 | 14 | -9 | 0.8 | -8 | -1.7% | nt
COc1ccc(C2C(C(=O)N3CCOCC3)CCC(=O)N2c2ccc(OC)cc2)cc1 (stereo not given) | 10 | 5 | 18 | -2.1 | 3 | 2.7% | 4%
CCSc1nc2c([nH]c3ccccc32)c(=O)n1C | 8 | 6 | 8 | 2.7 | 3 | 1.8% | 2%
CCCNC(=O)Cn1cnc2sc(C(=O)Nc3cc(OC)c(OC)c(OC)c3)c(C)c2c1=O | 1 | -11 | 2 | -0.6 | -2 | ? | 15%
CCOc1ccccc1NC(=O)c1ccc(CN2CCc3ccccc3C2)cc1 | -5 | -20 | 4 | -0.8 | -14 | 2.3% | -2%
O=C(CN1c2cccc3cccc(c23)S1(=O)=O)N1CCOCC1 | -3 | -5 | 0 | 2.3 | 1 | -1.7%[38.3 µM] | 5%
COc1ccc(-c2nnn(CC(=O)N3CCN(c4ccccc4OC)CC3)n2)cc1OC | -2 | 0 | -18 | -1.9 | 0 | 1.3% | 4%
Cc1ccc(NCN2C(=O)C(=O)c3ccccc32)nc1 | -7 | -66 | -12 | -19 | 10 | 12% | 8%
C=CCc1cc(/C=C2/NC(=O)N(CC)C2=O)cc(OCC)c1OCc1ccc(C(=O)O)cc1 | -3 | -1 | 2 | -1.4 | 1 | -0.1% | 12%
CC(OC(=O)c1ccc2c(=O)n3c(nc2c1)CCC3)C(=O)NC1CCCCC1C (stereo not given) | 5 | -8 | 3 | -0.2 | 8 | 2.3% | 0%
C/C(=N\OCC(=O)OCC(=O)NC(=O)c1ccc(OC(F)F)cc1)c1ccc2c(c1)OCO2 | 2 | -9 | 22 | -5.0 | 0 | -1.1% | nt
COc1cc(C2CC(=O)c3cnc(NC(C)=O)nc3C2)cc(OC)c1OC (stereo not given) | -1 | -5 | 0 | -1.2 | 6 | -2.2% | 22%
COc1cccc(N=c2oc3ccccc3cc2-c2nc3ccccc3[nH]2)c1 | ? | -3 | -4 | -3.6 | 0 | 6.9% | -15%
Cc1cc(/C=C(\C#N)C(=O)NC2CC2)c(C)[nH]1 | -7 | -7 | -5 | -3.3 | -8 | 1.4% | -9%
COc1cc(OC)c(NC(=O)CCNS(=O)(=O)c2ccc3c(c2)CC(C)N3C(C)=O)cc1Cl (stereo not given) | ? | -12 | -8 | 9.8 | -23 | 1.4% | 14%
O=C(NCc1ccccc1)N1CCn2c(nc3ccccc32)C1 | -14 | -9 | 3 | -3.1 | -1 | 1.4%[38.3 µM] | 12%
CCCC(=O)Nc1cc(=O)n(C)c(=O)n1C | -1 | -2 | nt | -0.6 | -1 | 0.1% | 1%
C[n+]1c(/C=C/c2ccc(O)cc2)ccc2ccccc21 | 0 | -11 | 0 | -4.0 | 1 | 2.0% | -4%
O=C(NCCO)C(F)(F)C(F)(F)C(F)(F)OC(F)(C(=O)NCCO)C(F)(F)F (stereo not given) | 10 | 0 | 0 | -1.2 | 8 | -0.7%[38.3 µM] | 1%

One compound at a time, from the list above:
CCOc1ccccc1NC(=O)c1ccc(CN2CCc3ccccc3C2)cc1 is listed as CtBP-E1A inh = -5; D2 PAM = -20; TRPV1 PAM = 4; D2 ag = -0.8; Six1-Eya2 inh = -14; PINK1 expr mod = 2.3%; Sfp PPTase inh = -2%
O=C(CN1c2cccc3cccc(c23)S1(=O)=O)N1CCOCC1 is listed as CtBP-E1A inh = -3; D2 PAM = -5; TRPV1 PAM = 0; D2 ag = 2.3; Six1-Eya2 inh = 1; PINK1 expr mod = -1.7%[38.3 µM]; Sfp PPTase inh = 5%

Source: PubChem (National Center for Advancing Translational Sciences (NCATS))
